Assay outcomes (PubChem BioAssay)
Arbovirus inh: antivirals against arbovirus infection, primary screen, cell-based, full library, 10K replicate subset; arbovirus infection cell-based antiviral screen; inhibition, % at 10 µM; 200,000 tested, 0.37% active; AID 1251, 2008;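 active = inhibition from about 30%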;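 also: bluetongue infection of BSR cells; cell survival read as ATP light after 72 h; 0% = infected wells without compound and 100% = uninfected wells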
RecA intein inh: Mtb RecA intein splicing inhibitors, primary screen, biochemical, fluorescence, HTS; AID 2221, 2009; inhibition, %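 (about 9 µM by stock and volumes)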; cell-free RecA intein splicing; 290,000 tested, 0.75% active; in the data active = inhibition above about 30%; inconclusive = no clear call, values can overlap the other calls;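 also: 0% = vehicle wells and 100% = reference inhibitor control wells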
Target sequence (P9WHJ3 whole entry, looked up): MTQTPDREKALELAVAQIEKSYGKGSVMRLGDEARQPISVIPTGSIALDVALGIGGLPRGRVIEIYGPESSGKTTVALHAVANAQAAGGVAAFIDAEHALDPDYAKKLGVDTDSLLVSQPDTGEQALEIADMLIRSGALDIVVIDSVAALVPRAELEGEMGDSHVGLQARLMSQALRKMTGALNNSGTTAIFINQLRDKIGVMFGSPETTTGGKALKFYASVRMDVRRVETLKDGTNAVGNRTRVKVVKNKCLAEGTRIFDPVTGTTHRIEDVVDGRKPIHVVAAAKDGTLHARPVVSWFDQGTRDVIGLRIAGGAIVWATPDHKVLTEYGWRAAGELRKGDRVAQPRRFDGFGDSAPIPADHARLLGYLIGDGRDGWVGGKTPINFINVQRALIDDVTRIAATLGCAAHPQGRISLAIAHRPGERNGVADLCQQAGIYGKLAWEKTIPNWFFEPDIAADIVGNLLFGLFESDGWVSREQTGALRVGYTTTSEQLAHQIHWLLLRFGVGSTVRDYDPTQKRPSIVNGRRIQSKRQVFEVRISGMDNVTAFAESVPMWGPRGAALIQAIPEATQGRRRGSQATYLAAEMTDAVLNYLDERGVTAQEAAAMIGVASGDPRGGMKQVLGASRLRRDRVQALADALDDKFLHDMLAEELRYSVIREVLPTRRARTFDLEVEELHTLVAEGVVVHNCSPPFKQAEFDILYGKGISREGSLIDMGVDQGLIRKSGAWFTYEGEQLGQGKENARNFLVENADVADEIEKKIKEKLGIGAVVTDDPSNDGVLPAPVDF
Mtb growth: M. tuberculosis H37Rv growth inhibitors, H37Rv strain (AID 1626); 220,000 tested, 0.95% active; one-dose inhibition, % at 10 µM; IC50 in µM for titrated hits; M. tuberculosis H37Rv growth inhibition; higher % means a stronger effect;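 active = confirmed in a dose series; inconclusive = inhibition above 80% but not taken into the dose series; inactive = below 80% or under 30% at every dose of the series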;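 also: bacteria incubated seven days before Alamar blue readout; 0% = bacteria only wells and 100% = bacteria with antibiotic wells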
YopH PTP inh: YopH tyrosine phosphatase inhibitors, primary screen, biochemical, fluorescence Ex485/Em525. YopH tyrosine phosphatase [Yersinia enterocolitica]. inhibition, %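 (about 10 µM by stock and volumes)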. 140,000 tested, 0.16% active. AID 898, 2007;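 active = inhibition of 50% or more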;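 also: controls were vehicle for no effect and minimum signal wells for full effect; inactives centre near -20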
Mtb betalactam: beta-lactam sensitization of Mtb H37Rv, H37Rv | inhibition, % at 25 µM | 330,000 tested, 0.27% active | M. tuberculosis H37Rv growth with meropenem, percent inhibition; hits of this screen are not shown here | AID 434955, 2010;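 active = about 74% or more and at least 40 points above the plate without the antibiotic, then above 30% in a dose series; inconclusive = first-round hits that could not be retested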;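 also: growth measured after seven days incubation then overnight dye step; 0% = bacteria only wells and 100% = bacteria with antibiotic; twin plates without the antibiotic show which effects depend on it; some results filed as inactive read as strong as hits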
Arbovirus inh repeat: second read-out of Arbovirus inh, no call of its own (marks repeat the call); inhibition, %; measured here: 10K subset replicate screen; many hits read low in the repeat;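 first of two repeat runs on a subset; 0% = infected and 100% = uninfected wells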
Numbers without * were called inactive; ? = inconclusive; . = no result given. These rows are one share of the data; the hit share may differ from the screen's.

SMILES	Arbovirus inh	RecA intein inh	Mtb growth	YopH PTP inh	Mtb betalactam	others
CC1CCN(S(=O)(=O)CCNC(=O)c2ccccc2)CC1	.	-0.1	.	.	-6.6
CCN1CCCc2cc(CN(CCN3CCOCC3)C(=S)Nc3cccc(Cl)c3)ccc21	9.1	5.7	-6.4%	.	14.7
O=C(Nc1nc(-c2cccc([N+](=O)[O-])c2)cs1)c1cccc([N+](=O)[O-])c1C(=O)O	9.6	0.3	-1.3%	.	-0.2
COc1ccc(OC)c2sc(N3CCN(C(=O)c4ccc([N+](=O)[O-])s4)CC3)nc12	.	-1.3	.	.	100.0
Cc1ccc(C)c(N2CCN(C(=O)CN3C(=O)c4ccccc4C3=O)CC2)c1	0.8	0.6	1.3%	-26.1	0.3
O=C(C1CC=CCC1)N1CCN(C(=O)C2CC=CCC2)CC1 (stereo not drawn)	0.3	3.5	-1.0%	-41.3	-7.1
COc1ccccc1N1CCN(C(=S)Nc2ccc(F)cc2)CC1	.	0.0	.	.	-0.4
COc1ccc2nc(NC(=O)CSc3nnc(C)s3)sc2c1	4.1	3.0	6.0%	-21.2	1.6
COC(=O)c1ccc2[nH]c(C)c(CN3CCCC3)c(=O)c2c1	10.8	.	-1.5%	-26.1	.	Arbovirus inh repeat=-1.7
Cc1nc(NC(=O)c2cc3c(C)nn(-c4ccccc4)c3s2)sc1C(=O)Nc1ccccc1	11.0	2.7	.	-30.8	66.8
CCOc1ccccc1N1CCN(C(=S)NC(=O)C23CC4CC(CC(C4)C2)C3)CC1	5.3	-0.2	0.3%	-1.1	11.9
COc1ccccc1N1CCN(Cc2ccc(Cl)cc2Cl)CC1	-6.3	5.2	-7.5%	-7.9	7.9
Cc1ccc(NC(=S)N2CCC(NC(=O)c3ccccc3)CC2)cc1	.	-0.8	.	.	-2.6
O=S(=O)(c1ccc(-n2cnnn2)cc1)N1CCN(c2ccccc2F)CC1	.	0.3	.	.	1.6
Fc1ccc(-c2cnn3c(-c4ccncc4)ccnc23)cc1	-2.2	-0.1	9.1%	.	54.9
CCc1ccc(CNCc2cccs2)cc1	7.5	1.3	-12.3%	.	-0.5
CN(Cc1ccccc1)C(=O)c1cccc(N2C(=O)NC3CC2(C)Oc2ccccc23)c1 (stereo not drawn)	6.8	2.8	-5.7%	-14.9	-10.8
Cc1sc2nc(COC(=O)c3ccc(N4CCCC(C)C4)c([N+](=O)[O-])c3)[nH]c(=O)c2c1C (stereo not drawn)	7.8	0.5	25.3%	-36.7	69.1
COc1ccccc1OCCCn1cc(C=O)c2ccccc21	2.8	2.6	1.8%	.	0.3
Cc1ccc2c(c1)N(CC(=O)N1CCCC1)C(=O)CO2	.	2.3	.	.	1.8
O=S(=O)(NCc1ccc(Cl)cc1)NCc1ccccc1F	8.4	-3.0	.	.	-7.3
Cc1cc(-c2nnc(CCC(=O)NC(Cc3ccccc3)c3ccccc3)o2)no1 (stereo not drawn)	7.3	.	1.5%	.	-5.4
CCc1ccccc1-n1c(SCC(=O)NC)nnc1-c1cccnc1	8.6	2.9	-11.6%	-15.3	3.2
CC(=O)c1c(C)nn(CCC(=O)O)c1C	-4.8	-0.2	-12.2%	-46.0	-8.4
c1csc(-c2nnc(COc3ccc4c(c3)OCO4)o2)c1	-3.5	-2.3	5.3%	.	-3.2
CC(=O)Nc1ccc(-c2nnc(SCC(=O)n3c4c(c5ccccc53)CCCC4)n2C)cc1	-2.0	-1.0	-3.4%	75.3*	.
CC(=O)N1CC(C)Oc2ccc(S(=O)(=O)NC(CC(=O)O)c3ccccc3)cc21 (stereo not drawn)	.	-1.0	.	.	2.2
CCc1ccc(C(=O)Nc2cccnc2Oc2ccc(Cl)cc2)cc1	.	7.7	0.8%	.	4.9
O=C(NCC1CCCO1)c1ccc(Cl)c(S(=O)(=O)N2CCOCC2)c1 (stereo not drawn)	.	-2.1	.	.	-3.6
CC(C)c1nnc(NC(=O)CCC(=O)N2CCN(c3ccccn3)CC2)s1	9.5	-0.7	-10.2%	-80.2	1.1
C=CCn1c(N2CCN(c3ccc(OC)cc3)CC2)nc2c1c(=O)[nH]c(=O)n2C	2.5	-3.5	3.1%	.	-8.0
COc1ccc(C2=NN(C(=O)CCC(=O)O)C(c3ccccc3OC)C2)cc1 (stereo not drawn)	.	0.3	.	.	6.2
Cc1cc(C(=O)NCC(C)(C)N2CCOCC2)c(C)o1	.	0.0	.	.	0.4
CCCCNC(=O)CSc1nc(Cc2ccccc2)nc2ccccc12	.	18.8	.	.	-16.7
Cc1c(Cl)cccc1NC(=O)Cc1cccs1	.	-0.4	.	.	-1.5
COc1ccc(/C=C/C(=O)N(C)Cc2cccs2)cc1S(=O)(=O)N1CCOCC1	1.5	0.4	-2.3%	.	4.5
Cc1ccccc1NC(=O)/C=C/c1cccs1	2.7	2.7	-3.0%	.	-8.8
O=C(CCn1c(=O)c2ccccc2n(Cc2ccccc2)c1=O)NCc1ccc2c(c1)OCO2	-4.4	.	.	-17.9	1.5
COc1ccc(C(=O)NN2CCOCC2)cc1[N+](=O)[O-]	.	-1.9	.	.	-11.1
O=C(COc1ccc(Cl)cc1)OCc1csc(Nc2ccccc2)n1	14.9	3.0	10.4%	-44.9	3.4
CN(C)CCCNC(=O)c1ccc(-c2ccccc2)cc1	-16.1	-1.5	4.1%	-23.5	-7.0
COc1ccc(-c2cc(C(F)F)n3ncc(C(=O)Nc4cnn(Cc5ccccc5)c4)c3n2)cc1	-1.3	-1.1	.	.	-1.4
COc1ccc(Cl)cc1NC(=O)CN(C)C(=O)c1ccc(C)s1	.	0.7	.	.	-13.5
COc1ccc(CNC(=O)CSc2ccsc2[N+](=O)[O-])cc1	-5.2	-1.1	5.6%	.	3.0
Cc1noc(C)c1COc1cccc(C(=O)NCc2cccc(Cl)c2)c1	0.3	6.5	5.2%	-58.2	4.6
Cc1ccc(S(=O)(=O)Nc2nc(-c3ccccc3)cs2)cc1	.	1.2	.	.	6.0
CCOc1ccccc1NC(=O)CCC(=O)Nc1nnc(C2CCCCC2)s1	.	2.6	.	.	-0.4
CSc1nnc(NC(=O)c2nc(S(=O)(=O)Cc3cccc(C)c3)ncc2Cl)s1	.	81.4*	.	.	4.3
Cc1cc(=O)n(Cc2ccccc2)c2c(C)cccc12	.	12.0	.	.	2.0
COc1ccc(C2CC(c3cccs3)n3nc(N)nc3N2)cc1 (stereo not drawn)	0.5	-7.2	-0.7%	-7.8	3.1	Arbovirus inh repeat=-3.2
COc1ccc(C(=O)NCC(=O)N/N=C/c2cn[nH]c2-c2ccccc2)cc1	0.4	1.6	-4.7%	.	0.8
O=C(Nc1ccc(S(=O)(=O)N2CCCCC2)cc1)c1cccnc1Cl	.	2.8	.	.	-7.3
Cc1ccc(-c2nnn(CC(=O)N(c3ccc(F)cc3)C(C(=O)NC(C)(C)C)c3ccco3)n2)o1 (stereo not drawn)	1.4	4.5	-0.3%	9.5	-1.5
NC(=O)Nc1ccccc1C(=O)N1CCC(O)(c2ccc(Cl)cc2)CC1	5.4	0.3	-6.8%	-16.5	-3.1
O=C(CC1C(=O)NCCN1C(=O)Nc1ccc(F)cc1)Nc1ccc(F)cc1 (stereo not drawn)	.	-0.1	-7.1%	.	-10.0
CC(=O)N1CCC(N(C(=O)Nc2ccc(Cl)cc2)C(C)C)CC1	.	1.5	-11.2%	.	-8.0
C/C=C(\C)C(=O)NCCN1C2=NC[C@H](Cc3ccccc3)N2C[C@@H]1Cc1ccc(OC)cc1	.	3.2	4.6%	.	-1.0
Cc1ccc(-c2nc(SCC(=O)c3c(N)n(C)c(=O)n(C)c3=O)n[nH]2)cc1	1.3	-0.1	-11.2%	.	-3.4
CC1CCCCC12NC(=O)N(CC(=O)NC(=O)NCc1ccco1)C2=O (stereo not drawn)	8.1	1.1	-4.6%	-11.5	3.2
COc1ccc(CN2[C@@H](CC(=O)O)c3ccc(C(F)(F)F)cc3S2(=O)=O)cc1	.	-3.0	-13.2%	.	-4.7
The listing continues:
SMILES	Arbovirus inh	RecA intein inh	Mtb growth	YopH PTP inh	Mtb betalactam	others
O=C(Cc1ccccc1)NCCCN1CCN(CCCNC(=O)Cc2ccccc2)CC1	9.3	1.4	-2.6%	-13.3	-7.2
CCCCN(C(=O)CCC(=O)Nc1cc(C)on1)C(C(=O)NC1CCCC1)c1cccc(OC)c1 (stereo not drawn)	.	-5.3	.	.	-7.6
Cc1[nH]c2ccccc2c1C(=O)COc1ccccc1	9.8	0.3	6.8%	.	-7.1
O=S(=O)(NCCNc1ncc(C(F)(F)F)cc1Cl)C(F)(F)F	-4.0	-2.6	-3.1%	.	5.6
O=C(Nc1ccc(Cl)c(S(=O)(=O)N2CCOCC2)c1)c1cc(-c2ccccn2)nc2ccccc12	-11.0	10.7	?	.	-13.1
OCc1cccc(Nc2ncnc3sc4c(c23)CCCCC4)c1	.	-0.3	.	.	-6.0
CCN(C(=O)COC(=O)CN(C)S(=O)(=O)c1ccc(NC(C)=O)cc1)C1CCS(=O)(=O)C1 (stereo not drawn)	.	-1.8	.	.	-21.6
COc1cc(CNn2nnnc2N)cc(Br)c1OCC(=O)NC(C)(C)C	9.6	-1.4	-0.6%	-11.1	-6.7
COc1cc([N+](=O)[O-])ccc1NC(=O)CSc1nnc(C)c(C)n1	0.4	-0.3	3.9%	.	3.0
CC1(C)SC(=S)N(NC(=O)Nc2ccccc2)C1N(O)C(=O)Nc1cccc2ccccc12 (stereo not drawn)	-43.9	2.5	-1.2%	-14.2	-2.4
CCC(=O)N1CCc2cc(S(=O)(=O)NCCC(=O)N3CCN(c4ccccc4)CC3)ccc21	.	2.5	.	.	-6.2
O=C(Nc1ccc(Cl)cc1)Nc1nc(-c2ccccc2)cs1	-1.5	-1.1	5.1%	.	7.8
CC(C)(C)OC(=O)NCCCC[C@H](NC(=O)c1nc[nH]c1C(=O)NC(c1ccccc1)c1ccccc1)C(=O)OC(C)(C)C	-16.0	-0.6	17.9%	.	9.6
Cc1ccc(-c2csc(NC(=S)NC(=O)/C=C/c3ccco3)n2)cc1	-23.3	3.4	6.5%	-16.5	2.9
CCN1CCCC1CNCc1cccc(OC)c1OCc1ccccc1 (stereo not drawn)	21.6	0.1	5.6%	-15.2	-6.5
Cc1ccc(N/N=C/c2ccncc2)cc1	.	1.7	.	.	94.7

Of the compounds above, two have a CF3 group:
SMILES	Arbovirus inh	RecA intein inh	Mtb growth	YopH PTP inh	Mtb betalactam	others
COc1ccc(CN2[C@@H](CC(=O)O)c3ccc(C(F)(F)F)cc3S2(=O)=O)cc1	.	-3.0	-13.2%	.	-4.7
O=S(=O)(NCCNc1ncc(C(F)(F)F)cc1Cl)C(F)(F)F	-4.0	-2.6	-3.1%	.	5.6

Structures from the list above that have two or more sulfur atoms:
SMILES	Arbovirus inh	RecA intein inh	Mtb growth	YopH PTP inh	Mtb betalactam	others
COc1ccc(OC)c2sc(N3CCN(C(=O)c4ccc([N+](=O)[O-])s4)CC3)nc12	.	-1.3	.	.	100.0
COc1ccc2nc(NC(=O)CSc3nnc(C)s3)sc2c1	4.1	3.0	6.0%	-21.2	1.6
Cc1nc(NC(=O)c2cc3c(C)nn(-c4ccccc4)c3s2)sc1C(=O)Nc1ccccc1	11.0	2.7	.	-30.8	66.8
COc1ccc(/C=C/C(=O)N(C)Cc2cccs2)cc1S(=O)(=O)N1CCOCC1	1.5	0.4	-2.3%	.	4.5
COc1ccc(CNC(=O)CSc2ccsc2[N+](=O)[O-])cc1	-5.2	-1.1	5.6%	.	3.0
Cc1ccc(S(=O)(=O)Nc2nc(-c3ccccc3)cs2)cc1	.	1.2	.	.	6.0
CSc1nnc(NC(=O)c2nc(S(=O)(=O)Cc3cccc(C)c3)ncc2Cl)s1	.	81.4*	.	.	4.3
CCN(C(=O)COC(=O)CN(C)S(=O)(=O)c1ccc(NC(C)=O)cc1)C1CCS(=O)(=O)C1 (stereo not drawn)	.	-1.8	.	.	-21.6
CC1(C)SC(=S)N(NC(=O)Nc2ccccc2)C1N(O)C(=O)Nc1cccc2ccccc12 (stereo not drawn)	-43.9	2.5	-1.2%	-14.2	-2.4
Cc1ccc(-c2csc(NC(=S)NC(=O)/C=C/c3ccco3)n2)cc1	-23.3	3.4	6.5%	-16.5	2.9
